TRPV1 potentiator – potentiators of human vanilloid receptor 1 (TRPV1) | Q8NER1 | TRPV1-expressing cells, Fluo-8 calcium influx, capsaicin EC20 potentiation; host cell line not named in the record; control for the full effect not named in the record | potentiation, % at 8.33 µM | 0.02% of 320,000 active | AID 540277; active means potentiation above 80%; inconclusive means 30% to 80%; inactive means below 30%; note: 0% is about no effect
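TRPV1-expressing cells were cultured overnight at 35.5C and loaded with Fluo-8 calcium dye for 40 to 90 min at room temperature. After a 10 s baseline, compound was added and calcium influx was read kinetically for 3 min (ex 480/em 520 nm).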
D2 PAM – potentiates the human D2 dopamine receptor allosterically | DiscoveRx D2 beta-arrestin cells, luminescence, 90 min; 100% = 57 uM dopamine signal | potentiation, % (no concentration beside the values) | 0.23% of 360,000 active; active = potentiation of 50% or more; inconclusive = 30% to 50%; inactive = 30% or less;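 note: compound concentration not given in the record; tested on top of an EC20 dose of dopamine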
Target sequence (P14416 whole entry, looked up): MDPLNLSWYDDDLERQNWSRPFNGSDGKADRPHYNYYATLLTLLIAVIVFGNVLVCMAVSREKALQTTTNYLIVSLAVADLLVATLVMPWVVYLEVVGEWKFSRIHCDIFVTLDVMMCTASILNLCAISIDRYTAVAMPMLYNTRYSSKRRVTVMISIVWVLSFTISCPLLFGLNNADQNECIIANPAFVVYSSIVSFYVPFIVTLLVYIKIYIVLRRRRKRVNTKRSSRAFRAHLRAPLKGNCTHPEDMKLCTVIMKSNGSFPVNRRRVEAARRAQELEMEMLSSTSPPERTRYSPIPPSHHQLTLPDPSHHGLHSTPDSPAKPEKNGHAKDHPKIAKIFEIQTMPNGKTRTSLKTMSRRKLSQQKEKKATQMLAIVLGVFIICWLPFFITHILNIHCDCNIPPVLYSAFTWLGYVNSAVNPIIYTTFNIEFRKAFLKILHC
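PathHunter beta-arrestin assay in DiscoveRx D2 cells. Compounds were added with an EC20 of dopamine (50 nM final) for 90 min at 37 deg C. Luminescence was read 1 h after detection reagent, with 57 uM dopamine as the EC100 control.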
TRPML1 agonist – agonists of human TRPML1 channel; Q9GZU1; TRPML1-expressing cells, Ca2+ dye fluorescence, FDSS; host cell line not named in the record; reference of the full effect not given here; activation, % (no concentration beside the values); 0.12% of 410,000 active; AID 624414; in the data active = activation above about 50%; inconclusive = about 30% to 50%; inactive = below about 30%; note: 0% is about no effect; the text of the record puts the active cut at 80%
Target sequence (Q9GZU1 whole entry, looked up): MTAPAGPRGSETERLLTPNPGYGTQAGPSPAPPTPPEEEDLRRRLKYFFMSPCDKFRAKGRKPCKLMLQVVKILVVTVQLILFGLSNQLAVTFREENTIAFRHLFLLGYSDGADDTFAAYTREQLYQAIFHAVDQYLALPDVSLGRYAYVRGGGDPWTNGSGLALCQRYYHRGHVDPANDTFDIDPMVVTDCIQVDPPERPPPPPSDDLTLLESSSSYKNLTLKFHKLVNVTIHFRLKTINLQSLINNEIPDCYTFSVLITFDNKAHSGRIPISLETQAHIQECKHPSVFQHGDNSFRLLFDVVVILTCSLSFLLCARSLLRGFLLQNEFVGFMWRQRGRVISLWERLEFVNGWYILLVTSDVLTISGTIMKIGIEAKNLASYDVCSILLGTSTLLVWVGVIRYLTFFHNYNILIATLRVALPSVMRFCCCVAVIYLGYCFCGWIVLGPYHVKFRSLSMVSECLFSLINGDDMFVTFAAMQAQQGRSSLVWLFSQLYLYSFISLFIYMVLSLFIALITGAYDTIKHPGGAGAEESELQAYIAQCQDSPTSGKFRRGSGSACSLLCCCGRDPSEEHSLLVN
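Agonist activity was taken from a 110 s kinetic Ca2+ dye read on the FDSS after pinning compounds onto TRPML1-DL cells. The cells were seeded at 1,500/well with Tet inducer, incubated about 16 h, then dye-loaded at room temperature.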
CtBP-E1A blk – inhibitors of CtBP/E1A interaction; AID 651724; 0.49% of 340,000 active; activity change, % (no concentration beside the values); AlphaScreen GST-E1A/His-CtBP binding, 1536-well; active compounds read low; control for the full effect not named in the record; in the data active means activity change below about -65%; inconclusive means about -30% to -65%; inactive means above about -30%; note: % is set by controls: 0 for no effect and ±100 for the full control effect
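GST-E1A and His-tagged CtBP (125 nM each as 5X stock) were preincubated with pin-transferred compound for 2 h at 37 °C in the dark, then glutathione donor and nickel acceptor beads were added for 1 h before AlphaScreen reading.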
Six1-Eya2 blk – blocks human Six1 binding to Eya2; Q15475+O00167; AlphaScreen GST-Six1/His-Eya2 binding, biochemical; active compounds read low; control for the full effect not named in the record; activity change, % (test concentration not listed); 0.56% of 360,000 active; AID 651725; in the data active = activity change below about -65%; inconclusive = about -30% to -65%; inactive = above about -30%; note: % is set by controls: 0 for no effect and ±100 for the full control effect
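GST-Six1 + His-Eya2 (5X stock: 250/500 nM); Tris pH 8.0, 300 mM NaCl, 0.05% BSA, 0.02% Tween 20; GSH donor/Ni acceptor beads; 1 h 37 °C dark; AlphaScreen readout.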
TRPML1 blocker – human mucolipin-1 channel inhibition. Q9GZU1. TRPML1-inducible cells, Ca2+ dye fluorescence, FDSS; active compounds read low; inhibition of EC80 agonist-evoked calcium signal. activity change, negative = inhibition, % (test concentration not listed). 0.02% of 390,000 active. AID 624415; in the data active means activity change below about -50%; inconclusive means about -30% to -50%; inactive means above about -30%;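 note: stimulus is agonist 54-4 at its EC80 concentration; % is set by controls: 0 for no effect and ±100 for the full control effect; compound concentration not given in the record; the text of the record puts the active cut at -80%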
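Tet-induced TRPML1-DL cells loaded with Ca8 no-wash calcium dye were read kinetically on FDSS. Compound addition was followed by EC80 agonist 54-4 (4 uM final); inhibition was read over 110 s.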
Active calls of the source: *; ? = inconclusive; / = not tested or not shown; & = joins results of further samples.

SMILES | TRPV1 potentiator | D2 PAM | TRPML1 agonist | CtBP-E1A blk | Six1-Eya2 blk | TRPML1 blocker
COc1ccc(-c2ccc(C(=O)Nc3cccc(Oc4ccccc4)c3)c3occc23)c(C)c1 | / | -1 | 0.8 | -4 | 2 | /
CC(=O)c1c(C)[nH]c(C(=O)CN2C(=O)NC3(CCCCC3C)C2=O)c1C (stereo not drawn) | 1 | -68 | 0.5 | 6 | 2 | 11
COc1ccc(NC(C)c2ccccc2)cc1 (stereo not drawn) | -22 | -2 | -0.7 | -17 | ? | 1
S=C(NCCCN1CCOCC1)NC1CCCC1 | 13 | -4 | -0.4 | 3 | 2 | 20
Brc1ccc2[nH]c3nc(SCCN4CCOCC4)nnc3c2c1 | -1 | -21&-8 | 0.5&-0.2 | -17 | -13&-20 | 10&8
Cc1ccc([N+](=O)[O-])cc1S(=O)(=O)Nc1ccc(C(=O)N(C)C)cc1 | 10 | -5 | -0.2 | 12 | 2 | -11
CC1=C(C(N)=O)C(c2cccs2)NC(=O)N1 (stereo not drawn) | 1 | 9 | 1.0 | 7 | 10 | 16
COc1ccc(CN2CCN(Cc3ccccc3)C(CCO)C2)cc1OC (stereo not drawn) | 16 | -41 | -0.1 | 1 | -1 | 13
Cc1ccc(NC2c3ccccc3C(=O)N2CCN2CCOCC2)cc1 (stereo not drawn) | -18 | -3 | -0.5 | 3 | -6 | -13
COc1cc(CNC[C@H]2O[C@@H](n3cnc(C(N)=O)n3)[C@H](O)[C@@H]2O)ccc1OCc1cccc(Cl)c1 | / | -5 | -0.8 | 0 | -3 | 37
CCN(CC)C(=O)CSC(=Nc1ccccc1F)NC#N | ? | -11 | 0.7 | -5 | -8 | -2
CCCNC(=O)NC1CCCCCCC1 | 8 | -2 | -0.6 | 1 | 2 | 0
CC(=O)N1CC2(C)CN(C(C)=O)CC(C)(C1)C2=O | 12 | 2 | -0.3 | 2 | -2 | -3
CCSc1nnc(CCNS(=O)(=O)c2ccc(C(C)=O)cc2)n1C | 2 | -7 | 0.9 | 18 | -4 | -2
CC(C)OC(=O)C1C(=O)CC(C)(O)C(C(=O)OC(C)C)C1c1ccc(F)cc1 (stereo not drawn) | -21 | -7 | 0.9 | 0 | 5 | -4
CCCN(C(=O)c1ccco1)c1nnc(-c2ccncc2)s1 | 20 | -9 | 1.2 | 3 | 0 | -1
c1ccc(Cn2ncc3c(N4CCOCC4)ncnc32)cc1 | 10 | 18 | -0.2 | -1 | 0 | 4
Cc1cc(Cl)ccc1NC(=O)C1CCCN1C(=O)c1cccs1 (stereo not drawn) | 3 | -3 | -0.1 | 6 | -1 | 1
COC(=O)c1ccc2cc(OC)cc([N+](=O)[O-])c2n1 | / | 1 | -0.1 | 25 | -4 | 15
CC(CNC(=O)CN1C(=O)NC2(CCCCC2C)C1=O)c1ccccc1 (stereo not drawn) | -1 | 3 | 0.6 | 9 | 4 | -2
CCC(=O)Nc1ccc(Nc2nc(Cl)nc(Nc3ccc(NC(=O)CC)cc3)n2)cc1 | -1 | 4 | -0.3 | -3 | -10 | 31
CN(Cc1cccs1)C(=O)Cn1cnc2ccccc2c1=O | -3 | -6 | 0.2 | 0 | 10 | 11
CNC(=O)OCc1ncn(-c2ccccc2)c1COC(=O)NC | / | 0 | -0.7 | 2 | 12 | /
COc1ccc(N2CCN(C(c3cc(OC)ccc3OC)c3nnnn3CC3CCCO3)CC2)cc1 (stereo not drawn) | 3 | 8 | 3.9 | -13 | -9 | 14
CCCN(CC(=O)Nc1ccccc1C)C(=O)C1CC(=O)N(Cc2ccccc2)C1 (stereo not drawn) | 6 | -6 | 0.9 | -18 | 5 | 10

Sorted by heavy-atom count (high to low): some entries from above
SMILES | TRPV1 potentiator | D2 PAM | TRPML1 agonist | CtBP-E1A blk | Six1-Eya2 blk | TRPML1 blocker
COc1ccc(N2CCN(C(c3cc(OC)ccc3OC)c3nnnn3CC3CCCO3)CC2)cc1 (stereo not drawn) | 3 | 8 | 3.9 | -13 | -9 | 14
CC(C)OC(=O)C1C(=O)CC(C)(O)C(C(=O)OC(C)C)C1c1ccc(F)cc1 (stereo not drawn) | -21 | -7 | 0.9 | 0 | 5 | -4
CCCN(C(=O)c1ccco1)c1nnc(-c2ccncc2)s1 | 20 | -9 | 1.2 | 3 | 0 | -1
CC(=O)N1CC2(C)CN(C(C)=O)CC(C)(C1)C2=O | 12 | 2 | -0.3 | 2 | -2 | -3

Already shown: entries from further up.
SMILES | TRPV1 potentiator | D2 PAM | TRPML1 agonist | CtBP-E1A blk | Six1-Eya2 blk | TRPML1 blocker
CCN(CC)C(=O)CSC(=Nc1ccccc1F)NC#N | ? | -11 | 0.7 | -5 | -8 | -2
CCCNC(=O)NC1CCCCCCC1 | 8 | -2 | -0.6 | 1 | 2 | 0

(more compounds)
SMILES | TRPV1 potentiator | D2 PAM | TRPML1 agonist | CtBP-E1A blk | Six1-Eya2 blk | TRPML1 blocker
CCOC(=O)N1CCC(NC(=O)CCC(=O)N2CC(C)Oc3ccc(Cl)cc32)CC1 (stereo not drawn) | -12 | -9 | 0.4 | 1 | -2 | -14
CC[C@H]1c2[nH]c3ccccc3c2C[C@H]2C(=O)N(c3ccc(F)cc3)C(=O)N21 | -4 | -29 | / | -12 | -5 | /
CN(C)c1ccc(P(=O)(OC2CCCCC2)C(Nc2ccccc2)c2cccnc2)cc1 (stereo not drawn) | -16 | -5 | 0.5 | -1 | -6 | 8
O=C(Nc1ccccc1C(=O)NCCCN1CCOCC1)c1ccc(Cl)cc1 | -9 | -13 | -0.2 | 0 | -2 | 10
O=C1/C(=C/c2c[nH]c3ccccc23)CCC/C1=C\c1c[nH]c2ccccc12 | 14 | -4 | 4.2 | 0 | -11 | -11
CCOC(=O)[C@H]1[C@H]2COc3ccc(Cl)cc3[C@@H]2N2C(=O)[C@H](C)NC(=O)[C@@]12C | / | -3 | 0.2 | 0 | 2 | 11
COc1cccc(CN(C)C(=O)c2ccc(C)c(S(=O)(=O)N3CCCCC3)c2)c1 | -9 | -1 | -0.2 | 0 | -10 | 3
CC(C)c1nc(-c2ccccn2)no1 | 7 | -2 | 0.2 | -1 | 8 | 19
COc1cc(/C=C2\SC(=Nc3cccnc3)NC2=O)cc(OC)c1OC | / | -14 | 4.4 | 13 | -2 | 0
COc1ccc(C(O)(CC(C)C)C(CN2CCOCC2)c2ccccc2)cc1 (stereo not drawn) | -18 | -12 | 1.4 | -2 | 2 | 5
Cc1cc(CNC(=O)c2cccnc2Cl)c2ccccc2n1 | -22 | -3 | 0.3 | -7 | 5 | -6
Cc1ccc(-c2c(NC(=O)C(C)C)n(C)c3ccccc3c2=O)cc1 | -8 | -8 | -0.2 | 1 | 14 | 14
COc1ccc(C(=O)/C=C/c2cn(CC(O)CN(CC(C)C)CC(C)C)c3ccccc23)cc1OC (stereo not drawn) | ? | / | 0.5 | / | / | 3
O=C1c2ccccc2C(=O)N1c1cccc2ccccc12 | 19 | -30 | 0.0 | 0 | 1 | 3
Cc1cccc(-c2cc3nc4c(c(N5CCCC(O)C5)n3n2)CCC4)c1 (stereo not drawn) | -17 | -11 | -0.8 | 10 | -13 | 6
CCN(CC)S(=O)(=O)c1cccc(-c2nnc(SCC(=O)N3CCC(C(=O)O)CC3)n2N)c1 | 4 | -6 | -0.4 | -4 | -10 | 6
O=C1CCCC(O)=C1C=NCCc1ccccc1 | 21 | -2 | -0.9 | 4 | 6 | -2
CS(=O)(=O)N(CC(=O)N1CCCCC1)c1ccc(Cl)c(C(F)(F)F)c1 | 21 | -20 | -0.3 | 14 | -1 | 8
O=C(Nc1ccc(-c2nc3cc(Cl)ccc3c(=O)o2)cc1)c1ccco1 | -3 | -3 | -0.2 | 7 | 0 | -5
C=C(C)Cc1c(C)nc(-c2ccccc2)[nH]c1=O | 18 | -1 | -0.5 | 6 | 0 | -1
COc1ccc(/C=C2\CCCC3C2=NC(=S)NC3c2ccc(OC)cc2)cc1 (stereo not drawn) | -5 | -6 | -0.2 | 2 | 1 | -1
O=C(Cc1ncc(C(F)(F)F)cc1Cl)N1CCN(c2ccc(F)cc2)CC1 | -16 | -2 | 0.0 | -5 | -3 | 12
COc1ccc(-c2ccc(C(=O)N3CCOCC3)c3occc23)c(C)c1 | / | -12 | 1.2 | -10 | 0 | 11
O=C(Cn1c(-c2cncs2)nc2ccccc21)NC1CCCC1 | 26 | -25 | 0.6 | 3 | 2 | 11
COc1ccccc1NC(=O)C1CCN(S(=O)(=O)c2ccc3c(c2)NC(=O)CO3)CC1 | -3 | -12 | -1.1 | -6 | -6 | 0
SMILES | TRPV1 potentiator | D2 PAM | TRPML1 agonist | CtBP-E1A blk | Six1-Eya2 blk | TRPML1 blocker
O=C1CN=C(Nc2ccccc2)N1Cc1cccs1 | 27 | -7 | 3.9 | 2 | 3 | 6
CCOC(=O)Cc1c(C)nc2c(-c3ccc(Cl)cc3)c(C)[nH]n2c1=O | 14 | -22 | -0.3 | 14 | ? | -8
Cc1cccc(C)c1NS(=O)(=O)c1ccc(F)cc1 | -11 | 7 | -0.4 | 7 | 9 | 14
O=C(CCCCCCCCCCC(=O)NCc1cccnc1)NCc1cccnc1 | 25 | -4 | -0.3 | -2 | 0 | 4
COc1cccc(C(C#N)N2CCCCC2)c1O (stereo not drawn) | -11 | 0 | 0.2 | 5 | 5 | 7
COC(=O)CSC1=C(C#N)C(c2ccc(C)o2)CC(=O)N1 (stereo not drawn) | 1 | -3 | 0.3 | 0 | 2 | -3
CCc1ccc(C(=O)C(C)OC(=O)c2nc3nc(C)cc(C)n3n2)cc1 (stereo not drawn) | -9 | -8 | -0.1 | 0 | 0 | 9
O=c1c2ccccc2ncn1Cc1ccccc1 | / | -5 | 0.5 | 5 | 12 | 15
CCNC(=S)N1CCc2cc(OC)c(OC)cc2C1COc1ccccc1OC (stereo not drawn) | -5 | 5 | -0.3 | -8 | -7 | 15
COc1ccc(NC(=O)c2cc(-c3cc(OC)c(OC)c(OC)c3)nc3ccccc23)cc1OC | ? | 10 | 0.5 | -9 | -14 | -4
O=c1[nH]cnc(O)c1Nc1cccc(Cl)c1 | / | -1 | 0.0 | 5 | -4 | -4
O=C(CSc1nnc(CNC(=O)c2ccccc2F)o1)NCC1CCCO1 (stereo not drawn) | -4 | -7 | 0.4 | -1 | 5 | 10
COc1ccccc1/C=N/Nc1cc(N(C)C)nc(N(C)C)n1 | -12 | -12 | 1.0 | -4 | -13 | 16
CCCCNC(=O)N1CCc2[nH]c3ccccc3c2C1 | -7 | -9 | 0.7 | -5 | -6 | 2
Cc1ccc2oc(C(=O)Nc3nnc(CC(C)C)s3)c(C)c2c1 | ? | -23 | 0.1 | 8 | 0 | 1
COc1ccccc1NC(=O)CCSc1nc(C)cs1 | -4 | -2 | / | / | 2 | /
CCn1c(CCNC(=O)c2ccc(Cl)cc2)n[nH]c1=S | 4 | -28 | 0.0 | -3 | 2 | 5
CN(C(=O)Cn1nnc(-c2cccnc2)n1)C1CCCCC1 | -14 | -11 | 0.9 | -11 | -4 | 18
c1ccc(Nc2nn[nH]n2)cc1 | 4 | 0 | 0.0 | 12 | 6 | 13
CN(C)C(=O)C12CCC(C)(c3nc4ccccc4nc31)C2(C)C (stereo not drawn) | 9 | -3 | 1.7 | 5 | 2 | -6
O=C(OCc1nnc(-c2ccccc2)o1)c1cc(=O)c2ccccc2o1 | 5 | -28 | -0.8 | -5 | -4 | -4

Bioassay records (PubChem)
